High-throughput results deposited in PubChem BioAssay by National Center for Advancing Translational Sciences (NCATS).
WRN helicase inh: qHTS for Inhibitors of WRN Helicase | Bifunctional 3'-5' exonuclease/ATP-dependent helicase WRN (Homo sapiens), Q14191 | 360,000 compounds, 0.46% hits | Potency, µM (top dose mostly 114 µM), for the others: at the top dose activity change, negative = inhibition, most hits filed as inhibitors | WRN helicase unwinding, fluorescent forked duplex, kinetic; further: potency means the concentration at half of the fitted maximal effect; nearly all actives have a fitted effect of over 55% in size
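WRN at 20 nM final was preincubated with compound for 15 min at room temperature; reaction started with 100 nM forked duplex oligonucleotide carrying fluorophore and quencher plus 2 mM ATP (final). Unwinding followed kinetically by red fluorescence (ex 525/em 598 nm).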
HT1080-NT tox: qHTS for induction of synthetic lethality in tumor cells producing 2HG: qHTS for the HT-1080-NT fibrosarcoma cell line. HT-1080-NT fibrosarcoma viability, CellTiter-Glo ATP luminescence, 48 h. Potency, µM (highest dose often 46.1 µM), inactives show at the highest dose activity, negative = less viability, usual class: cytotoxic. 360,000 compounds, 1.6% hits. AID 686970, 2013;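 further: NT is the 2HG producing partner of a matched IDH1 knockdown line; potency means the concentration at half of the fitted maximal effect; 0% = DMSO-treated cells and -100% = media-only wells without cells; nearly all actives have a fitted effect of over 55% in size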
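Fibrosarcoma NT cells, 750 per well in 5% FBS RPMI, were exposed to compound for 48 hours. Viability: CellTiter-Glo luminescence.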
KB-3-1 tox: qHTS assay for MDR1-selective chemotherapeutics: Primary screen using the parental adenocarcinoma cell KB-3-1 | KB-3-1 viability, CellTiter-Glo ATP luminescence, 72 h | Potency, µM (top dose mostly 46.1 µM), for inactives: top-dose activity change, negative = cytotoxic, usual class: cytotoxic | 400,000 compounds, 1.4% hits | AID 1347075, 2019; further: potency means the concentration at half of the fitted maximal effect; nearly all actives have a fitted effect of over 60% in size
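Multi-concentration cytotoxicity screen in KB-3-1 cells grown in DMEM lacking phenol red with 10% FBS. After 72 h at 37 °C with compound, ATP-dependent luminescence was recorded.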
ATXN2 expr inh: Primary qHTS for Inhibitors of ATXN expression | 360,000 compounds, 0.72% hits | HEK-293 ATXN2-luciferase reporter, luminescence, 24 h | Potency, µM (top dose mostly 57 µM), for the others: top-dose activity change, negative = inhibition, hits mostly inhibitors | AID 1745845, 2022; further: potency means the concentration at half of the fitted maximal effect; nearly all actives have a fitted effect of over 55% in size
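qHTS (up to 57 uM final) was run with 24 h compound exposure of reporter cells at 37 °C. Each well was multiplexed: SteadyGlo luminescence measured ATXN2-luciferase expression after a fluorogenic Gly-Phe-AFC viability readout (25 uM final).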
IL1B secr inh: qHTS for Inhibitors of Inflammasome Signaling: IL-1-beta AlphaLISA Primary Screen | THP-1 LPS/ATP IL-1B secretion, AlphaLISA, 16 h; active compounds read low | 360,000 compounds, 4.7% hits | activity change, % at 57.5 µM | AID 743279, 2014; in the data active means activity change below about -50%; inconclusive means mostly about -30% to -49%
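THP-1 cells pretreated 1 hr with compounds (up to 57.5 uM final), then stimulated with LPS (250 ng/mL final) plus ATP (1.25 mM final); secreted IL-1B measured by AlphaLISA after 16 hr, decreased signal indicating inhibition.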
Starred values were filed as active, the others as inactive; & = joins results of further samples. Unless noted, the call rests on the fitted dose curve; in most records, active means well fitted curve in the direction sought with a large enough effect; inconclusive means small, poorly fitted or top-dose-only effect, or another doubt; inactive means no such curve, though single readings can be large; an effect the other way counts as inactive or inconclusive. Unless noted, on the % scale 0 is the no-effect control and ±100 the full control effect. Only part of the results is shown; rates above refer to the full screens.

For c1ccc2c(c1)C1=NCCN1c1ccccc1-2 the results were WRN helicase inh -6.3%, HT1080-NT tox inconclusive, KB-3-1 tox inconclusive and IL1B secr inh -105.4*.
`C=CCc1ccc(OCCCNC2CCCC2)c(OC)c1` gave WRN helicase inh 3.2%, HT1080-NT tox -7.1%, KB-3-1 tox 3.4%, ATXN2 expr inh -6.9% and IL1B secr inh -27.1.
For CCN1CC2=C(OC(N)=C(C#N)C2c2cccs2)/C(=C/c2cccs2)C1 (stereo unspecified) the results were WRN helicase inh -18.7%, HT1080-NT tox inconclusive, KB-3-1 tox -11.9%, ATXN2 expr inh -15.3% and IL1B secr inh -23.0.
`CN(C)CCOC(c1ccccc1)c1ccccc1` (tested in a mixture with another compound) gave WRN helicase inh -1.1%, HT1080-NT tox 18.9%, KB-3-1 tox 0.0%, ATXN2 expr inh -2.8% and IL1B secr inh -20.9.
For COc1ccc(-c2nc3cc(C)ccn3c2NC2CCCCC2)cc1SC1CCCCC1 the results were WRN helicase inh -6.0%&-4.8%, HT1080-NT tox inconclusive, KB-3-1 tox inconclusive, ATXN2 expr inh inconclusive and IL1B secr inh -85.0*.
C=C1C(=O)OC2C1CCC(C)=CCCC1(C)OC21 (stereo unspecified) was read as WRN helicase inh -21.4%, HT1080-NT tox 16.4µM*, KB-3-1 tox inconclusive, ATXN2 expr inh inconclusive and IL1B secr inh -113.0*.
Screening Clc1ccc2c(c1)-c1ccccc1C1=NCCN12 returned WRN helicase inh 9.0%, HT1080-NT tox inconclusive, KB-3-1 tox 10.3µM* and IL1B secr inh -103.5*.
NC1C2CN(c3nc4c(cc3F)c(=O)c(C(=O)O)cn4-c3ccc(F)cc3F)CC12 (stereo unspecified) was read as WRN helicase inh -9.6%, HT1080-NT tox -24.2%, KB-3-1 tox inconclusive, ATXN2 expr inh 3.9% and IL1B secr inh -14.7.
Screening O=C(O)/C=C/C(=O)O returned WRN helicase inh 4.9%, HT1080-NT tox -0.3%, KB-3-1 tox 0.0%, ATXN2 expr inh -5.8% and IL1B secr inh 8.3.

Sorted by heavy-atom count (ascending): some entries from above
For c1ccc2c(c1)C1=NCCN1c1ccccc1-2 the results were WRN helicase inh -6.3%, HT1080-NT tox inconclusive, KB-3-1 tox inconclusive and IL1B secr inh -105.4*.
Screening Clc1ccc2c(c1)-c1ccccc1C1=NCCN12 returned WRN helicase inh 9.0%, HT1080-NT tox inconclusive, KB-3-1 tox 10.3µM* and IL1B secr inh -103.5*.
`C=CCc1ccc(OCCCNC2CCCC2)c(OC)c1` gave WRN helicase inh 3.2%, HT1080-NT tox -7.1%, KB-3-1 tox 3.4%, ATXN2 expr inh -6.9% and IL1B secr inh -27.1.
NC1C2CN(c3nc4c(cc3F)c(=O)c(C(=O)O)cn4-c3ccc(F)cc3F)CC12 (stereo unspecified) was read as WRN helicase inh -9.6%, HT1080-NT tox -24.2%, KB-3-1 tox inconclusive, ATXN2 expr inh 3.9% and IL1B secr inh -14.7.

Entries shown so far that have nitrogen in an aromatic ring (2):
For COc1ccc(-c2nc3cc(C)ccn3c2NC2CCCCC2)cc1SC1CCCCC1 the results were WRN helicase inh -6.0%&-4.8%, HT1080-NT tox inconclusive, KB-3-1 tox inconclusive, ATXN2 expr inh inconclusive and IL1B secr inh -85.0*.
NC1C2CN(c3nc4c(cc3F)c(=O)c(C(=O)O)cn4-c3ccc(F)cc3F)CC12 (stereo unspecified) was read as WRN helicase inh -9.6%, HT1080-NT tox -24.2%, KB-3-1 tox inconclusive, ATXN2 expr inh 3.9% and IL1B secr inh -14.7.
